Screens deposited in PubChem by Johns Hopkins Ion Channel Center.
KCNQ2 pot = potentiators of rat KCNQ2 potassium channel. O88943. CHO-K1 KCNQ2, FluxOR thallium flux fluorescence; stronger effect = higher value. B-score at 10 µM. 310,000 tested, 0.54% active. AID 2239;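 active = fluorescence ratio B-score at least 3 SD of library B-scores, with initial fluorescence B-score within 3 SD, cut at about 5.3 in these data; same plate scores as AID 2156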;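 note: B-score of peak minus minimum over baseline fluorescence ratio after K+ and Tl+ stimulus; positive B-score means potentiation of KCNQ2 with more thallium influx and brighter signal; only the inactives scoring about 0 or higher are listed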
Target sequence (O88943 whole entry, looked up): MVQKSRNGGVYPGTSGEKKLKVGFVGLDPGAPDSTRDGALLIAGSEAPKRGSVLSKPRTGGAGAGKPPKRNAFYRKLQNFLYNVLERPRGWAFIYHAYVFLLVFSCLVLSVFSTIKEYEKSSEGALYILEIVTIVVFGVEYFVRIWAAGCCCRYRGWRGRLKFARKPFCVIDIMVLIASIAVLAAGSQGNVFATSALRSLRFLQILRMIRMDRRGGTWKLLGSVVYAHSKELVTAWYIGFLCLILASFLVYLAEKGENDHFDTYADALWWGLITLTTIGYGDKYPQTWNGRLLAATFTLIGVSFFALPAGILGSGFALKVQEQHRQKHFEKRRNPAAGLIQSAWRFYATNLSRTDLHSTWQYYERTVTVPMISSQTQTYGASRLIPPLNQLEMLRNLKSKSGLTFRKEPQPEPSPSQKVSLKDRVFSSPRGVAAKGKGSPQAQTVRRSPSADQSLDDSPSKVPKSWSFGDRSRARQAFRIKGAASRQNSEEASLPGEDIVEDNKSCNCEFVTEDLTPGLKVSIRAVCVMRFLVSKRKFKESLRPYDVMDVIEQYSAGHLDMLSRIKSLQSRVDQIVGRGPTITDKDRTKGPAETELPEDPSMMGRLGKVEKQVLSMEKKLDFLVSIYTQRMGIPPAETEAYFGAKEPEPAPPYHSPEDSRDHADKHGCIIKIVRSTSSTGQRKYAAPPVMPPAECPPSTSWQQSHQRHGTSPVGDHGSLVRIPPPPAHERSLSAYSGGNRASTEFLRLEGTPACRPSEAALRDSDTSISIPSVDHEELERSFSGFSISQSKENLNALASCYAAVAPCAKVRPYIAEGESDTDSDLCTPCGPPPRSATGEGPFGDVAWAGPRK
KCNQ2 pot baseline = further read-out of KCNQ2 pot, marked with its call; B-score; compound at 10 µM; measured here: initial fluorescence intensity artifact check;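 brightness before thallium and not channel activity; 0 = typical well and far values either way flag optical interference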
Starred values were filed as active, the others as inactive. The list is partial; rates above refer to the full screens.

Structure	KCNQ2 pot	KCNQ2 pot baseline
O=C(CCN1C(=O)/C(=C/c2ccccc2Cl)SC1=S)Nc1cccnc1	0.6	-2.2
COc1ccc(NC(=O)NCc2ccccn2)cc1	0.74	-1.1
CCN(CC)CCCNc1oc(-c2ccccc2[N+](=O)[O-])nc1C#N	1.9	-1
Cc1ccc(CNC(=O)c2nn(C)c(C)c2[N+](=O)[O-])cc1	0.02	-0.95
COc1ccc(Cl)cc1NC(=O)Nc1ccc(C(=O)N2CCOCC2)cc1	1.1	0.23
Cc1c(NC(=O)C2CCN(S(=O)(=O)c3ccc(Cl)cc3)CC2)c(=O)n(-c2ccccc2)n1C	1.4	0.61
Cc1ccc(C)c(Nc2nc3ccccc3n3cnnc23)c1	1.7	-0.48
CCCOc1ccc(C2C(C(=O)c3ccc(C)o3)=C(O)C(=O)N2Cc2cccnc2)cc1 (centres undefined)	1.1	-2.3
O=C(CN1CCOCC1)N1CCc2ccccc2C(c2ccccc2)C1 (centres undefined)	0.88	0.12
COc1ccc(S(=O)(=O)N(CC(=O)N2CCN(C)CC2)c2ccccc2)cc1OC	0.21	-0.03
COc1cccc(CNC(=O)c2ccc(CS(=O)(=O)Cc3ccc(C)cc3)o2)c1	1.2	0.58
CC1CCCN(c2ccc(C(=O)Nc3cccnc3)cc2[N+](=O)[O-])C1 (centres undefined)	3.4	-0.26
CCOC(=O)C(=O)c1csc(NC(=O)CCSc2ccc(C)cc2)n1	1.4	4.5
O=C(CCS(=O)(=O)c1ccc(Br)cc1)NCCC1=CCCCC1	0.55	-0.93
O=C(OCC(=O)c1ccc[nH]1)c1ccccc1	0.71	3.3
O=c1c2ccccc2c2ccccc2c(=O)n1CC1CCCO1 (centres undefined)	0.32	-1.4
Cc1ccccc1S(=O)(=O)c1cc2ccccc2nc1N	0.53	0.06
CCCC(=O)Nc1ccc(NC(=O)C2CC2)cn1	0.65	0.32
Cc1nn(-c2ccc(F)cc2)c(Cl)c1/C=C/C(=O)OCC(=O)Nc1c(F)c(F)c(F)c(F)c1F	0.8	-0.75
O=C(CCNS(=O)(=O)c1ccc(Br)cc1)NC1CCN(Cc2ccccc2)CC1	1.4	-0.04
COc1ccc(S(=O)(=O)N(C)C)cc1NC(=O)Cc1c[nH]c2ccccc12	1.4	-0.44
CCOc1ccc2nc(SCCNS(=O)(=O)c3ccccc3)sc2c1	1.1	-1.3
CCOC(=O)C1=C(C)N(C)C(C)=C(C(=O)OCC)C1c1cccnc1	0.16	0.49
COCCNC(=O)C(C)N(c1ccc(Oc2ccccc2)cc1)S(C)(=O)=O (centres undefined)	0.55	1.5
S=C(NCCN1CCCCC1)Nc1ccc(Br)cc1	0.02	0.79
CN1CCN(c2nc3c(c(=O)[nH]c(=O)n3C)n2CCSc2nc3ccccc3s2)CC1	0.97	0.17
O=C(Nc1ccccc1)c1ccsc1	1.6	-1.1
CCNc1nc(NCC)nc(N(C)/N=C/c2ccco2)n1	1.5	-0.99
CC(C)[n+]1ccn(C2=C([O-])c3ccccc3C(=O)/C2=N\S(=O)(=O)c2ccccc2)c1	0.95	-0.09
O=C(CCN1C(=O)C2CCCCC2C1=O)N1CCN(S(=O)(=O)c2cccc(F)c2)CC1 (centres undefined)	0.55	2.6
Nc1nc2c(nc(SCc3ccccc3Br)n2[C@@H]2O[C@H](CO)[C@@H](O)[C@H]2O)c(=O)[nH]1	1.9	0
COc1ccc(CNCCC2(Cc3ccccc3)CC(C)N(C)CC2C)cc1OC (centres undefined)	1.7	-0.93
Cc1nn(CC(=O)O)c(C)c1C	1.4	0.34
Cc1cc(C(=O)N2CCN(c3ncccn3)CC2)cs1	1	2.2
Cc1sc(NC(=O)c2ccccc2)c(C(c2ccc(Cl)cc2)N2CCN(CCO)CC2)c1C (centres undefined)	4.5	0.52
Cc1cccc(C)c1NC(=O)c1cc2c(=O)c3ccccc3oc2nc1C(F)(F)F	1.3	-0.59
CCC(NS(=O)(=O)c1ccc2c(c1)NC(=O)C(C)C(=O)N2)c1cccs1 (centres undefined)	0.57	-1.2
O=C(O)c1cc2cc(OCc3ccccc3)ccc2[nH]1	2.4	-2.5
Nc1ccc(Br)cc1Br	0.37	0.37
CCCOc1ccc(-c2csc(N)n2)cc1[N+](=O)[O-]	1.8	-0.6
CN1CCN(c2ccc(CNS(=O)(=O)c3ccccc3)cc2)CC1	0.01	-0.46
C=CCNC(=O)c1onc(CSc2ccccc2)c1C(=O)NCC=C	0.54	-0.14
O=C(CCCC(=O)n1cnc2ccccc21)n1cnc2ccccc21	1.2	-0.32
CCCC(=O)Nc1nnc(SCC)s1	0.2	0
COc1ccc(C(O)Cn2c(=N)n(CCCN(C)C)c3ccccc32)cc1 (centres undefined)	1	0.62
Cc1ccn2c(=O)nc(SCC(=O)N3CCCC3)nc2c1	1	-0.6
COc1ccc(CCNC(=O)c2cnc3ccccn3c2=O)cc1	1.6	0.63
COc1ccc(-c2ncnc(C(F)(F)F)c2-c2csc(C)n2)c(O)c1	1.1	0.2
COc1cc(NC(=O)C2CCCN(c3ncnc4c3nc3n4CCCCC3)C2)cc(OC)c1OC (centres undefined)	0.02	-2
CC(C)OCCCNCc1cccs1	0.53	-1.6
CCN(CC)CCCNC(=O)C1c2cc(OC)c(OC)cc2C(=O)N(C)C1c1cccnc1 (centres undefined)	0.78	-1.8
O=S1(=O)CC2N=C(N(Cc3c(F)cccc3Cl)c3ccccc3F)SC2C1 (centres undefined)	0.09	-0.95
CCCCc1nnc(NC(=O)C(C)Sc2nc(C)cc(=O)[nH]2)s1 (centres undefined)	0.73	-1.1
Cc1cc(C)c(Cn2c(=O)n(CCCC(=O)NCc3ccco3)c(=O)c3sccc32)c(C)c1	0.91	0.27
COc1cc(/C=C/c2[nH]c(=O)[nH]c(=O)c2[N+](=O)[O-])ccc1OCCC(C)C	0.86	-1.8
COc1ccc2nc(C)cc(Nc3ccc(N4CCN(C)CC4)cc3)c2c1	2.5	-1.3

Following part
Structure	KCNQ2 pot	KCNQ2 pot baseline
Cc1cc(/C=C2\SC(=O)NC2=O)c(C)n1-c1ccc(N(C)C)cc1	0.19	-0.66
CC1(C)CC(=O)c2cc(OCC(=O)NCC3CCCO3)ccc2O1 (centres undefined)	1.1	0.55
COCCNC(=O)c1cnn2c(C(F)F)cc(-c3ccc(C)cc3)nc12	2.5	1.2
COc1ccc(C(=O)CSc2n[nH]c(=O)[nH]c2=O)cc1	0.58	-1.2
Cc1ccc(-n2nnnc2CNC(=O)C2CC(=O)N(c3ccccc3)C2)cc1C (centres undefined)	2.1	0.09
O=C(NNc1nc2ccccc2s1)c1ccc(F)cc1	2.3	1.2
COc1ccc(NC(=O)CSc2nnc(-c3ccco3)c(-c3ccco3)n2)cc1OC	0.08	-1.1
ONC(=Nc1ccc(Cl)cc1)c1ccccc1	0.25	-0.09
CCn1cc(C(=O)NCc2ccco2)c(=O)c2cc(S(=O)(=O)N3CCCCCC3)ccc21	0.11	-0.38
COc1cccc(/C=N/NC(=O)c2cc3c(OC)cccc3[nH]2)c1OC	0.57	1.1
CCc1nc2ccc(C(=O)NCCCN3CCN(c4ccccc4F)CC3)cc2nc1CC	0.03	-1.2
Cc1cc(S(=O)(=O)NC2CCCC2)ccc1-n1cnnn1	1.1	-1.2
CCOc1ccc(NC(=O)C2CCCN(c3cnccn3)C2)cc1 (centres undefined)	0.01	2
Cc1c(Cl)c([N+](=O)[O-])nn1CC(=O)N1CCCc2ccccc21	0.68	0.33
CCOc1ccc(S(=O)(=O)N2CCCCC2)cc1NC(=O)c1c(CC)noc1C	2.8	0.47
O=C(CN1CCOCC1)NNc1c2ccccc2nc2ccccc12	1.2	-0.01
CCOC(=O)c1c(NC(=O)CC(C)C)sc(C(C)=O)c1C	0.07	-0.98
Cc1cc(C)c2c3c(sc2n1)C(=O)N(C)CC(=O)N3	1.2	-0.57
Cc1c(C=Nc2ccc(S(=O)(=O)N(C)C)cc2)c(O)[nH]c(=O)c1C#N	0.16	-0.84
COCCn1c(SCc2ccc(F)cc2)nc2c1c(=O)[nH]c(=O)n2C	1.7	-0.08
Cc1cc(C)cc(-n2c(C)cc(/C=N/NC(=O)CN(c3c(C)cccc3C)S(C)(=O)=O)c2C)c1	0.83	0.09
CN(C)S(=O)(=O)c1cccc(NC(=O)CCCc2nc3ccccc3c(=O)[nH]2)c1	0.75	-1.4
Cc1ccc(Cn2c(C3CCCN3c3nc(C)cs3)nc3cc(C(F)(F)F)ccc32)cc1 (centres undefined)	0.88	-1.5
Cc1cc(C)nc(NC2=NCC(=O)N2c2ccc3c(c2)OCCO3)n1	0.74	0.63
O=C(COc1ccccc1/C=C1\SC(=O)NC1=O)Nc1ccccc1	1.3	1.4
COCCn1c(SCC(=O)Nc2cc(C)on2)nc2c(c1=O)SCC2	0.22	3.1
Cc1ccc(C)c(NC(=O)CN(C)C(=O)c2cc(-c3cccs3)nn2-c2ccccc2)c1	0.01	-0.15
O=C(NCCc1csc(-c2cccc(F)c2)n1)c1ccco1	0.29	-1.8
O=C(O)c1cccc(-c2nc3ccccc3[nH]2)c1	0.22	0.02
COc1cccc2c(=O)c(C(=O)NCc3cccs3)c[nH]c12	0.59	-0.9
CC(=O)Nc1ccc(N=NC2C(=O)N(C(N)=S)N=C2C)cc1 (centres undefined)	1.8	-1.9
CC12CCC(C(=O)N3CCCCCC3)(OC1=O)C2(C)C (centres undefined)	0.03	1.2
CC1=C(C#N)S(=O)(=O)C(C#N)C(c2ccccc2)C1 (centres undefined)	0.17	2.2
CCOC(=O)Cc1csc(CC(N)=O)n1	0.3	2.1
Nc1ccc(CCC(=O)N2CCCC2)cc1	0.1	-0.99
Cc1ccc(Nc2cnn(C34CC5CC(CC(CC(=O)O)(C5)C3)C4)c(=O)c2Cl)cc1	0.59	0.79
COc1cc(OC)c(S(=O)(=O)Nc2ccccc2N2CCOCC2)cc1NC(C)=O	1.1	-0.68
CCCCNC(=O)C1CCN(S(=O)(=O)c2ccc3c(c2)CC(C)N3C(=O)C2CC2)CC1 (centres undefined)	0.71	0.16
COc1ccccc1C(=O)NC(CCSC)C(=O)NCC(c1cccs1)N1CCOCC1 (centres undefined)	0.06	-0.02
CC(C)NC(=O)c1ccc2c(=O)n(Cc3ccco3)c(=S)[nH]c2c1	0.46	-0.16
O=C(NCCCN1CCN(Cc2ccccc2)CC1)C1CCN(S(=O)(=O)N2CCCC2)CC1	1.2	0.53
Cc1ccccc1OCCCCCCN1CCNCC1	0.64	3.2
CC(NC(=O)c1cccc(OC2CCN(C3CCN(C)CC3)CC2)c1)c1ccccc1 (centres undefined)	0.68	0.6
c1cnc(-c2nnc3n2CCCCC3)cn1	4.6	0
COc1cccc(NCc2ccc([N+](=O)[O-])s2)c1	0.04	2.2
COc1ccc(N2CCN(S(=O)(=O)c3ccc(-c4cnc(C5CC5)o4)cc3)CC2)cc1	0.93	0
O=C1Nc2c(Br)cc(Br)c3cccc1c23	1.9	-0.13
OC(COc1ccc(Br)cc1)CN1CCCC1 (centres undefined)	0.14	-0.73
O=C(O)COCc1nc2ccccc2s1	0.45	-0.3
Cc1nc2c(C(=O)NCCC(C)C)c[nH]n2c(=O)c1Cc1ccccc1F	0.17	1.1
CCOC(=O)CSc1nnc(CNC(=O)c2ccc(OC)cc2OC)n1C	1.2	0.04
COc1ccc(C)cc1S(=O)(=O)N(CC(=O)N1CCOCC1)Cc1ccccc1	1.4	-1.4
CCOC(CNC(=O)C1CCN(S(=O)(=O)c2ccc3nc4c(c(C(=O)O)c3c2)CC(C)CC4)CC1)OCC (centres undefined)	0.13	1.5
COc1ccc(Cc2nnc(SCC(=O)Nc3cc(Cl)ccc3OC)[nH]c2=O)cc1	0.13	-0.65
Cc1c(CC(=O)NCC(=O)O)c(=O)oc2cc3oc4c(c3cc12)CCCC4	0.01	0.67
Cc1ccc(N2CCN(CCCN3C(=O)C4CCCN4C3=O)CC2)cc1 (centres undefined)	0.1	-1.1

(next part)
Structure	KCNQ2 pot	KCNQ2 pot baseline
O=C(NCc1ccccn1)c1c(O)c2cccc3c2n(c1=O)CC3	0.2	-1.4
CCOC(=O)C1CCN(C(=O)C2CCN(S(=O)(=O)c3ccc4ccccc4c3)CC2)CC1	1.4	0
Cc1ccc(C(=O)NC(=S)Nc2ccc(S(=O)(=O)N(C)c3ccccc3)cc2)cc1	0.03	0.03
N=c1ncn(CC(O)CN2CCOCC2)c2nc(N3CCOCC3)[nH]c12 (centres undefined)	0.22	0.14
O=S(=O)(NCC1CCCO1)c1cnc(Cl)c(Cl)c1 (centres undefined)	0.82	1.7
